HIV Env fusion: inhibitors of HIV-1 Env-driven cell-cell fusion, primary screen, HeLa-JRFL effector, CEM21 target cells, luciferase; inhibition, % at 12.3 µM; 360,000 compounds, 1.1% hits; AID 651610, 2012;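 active = mean replicate inhibition score of at least 50 and every replicate individually at or above 50; inconclusive = only one of the two criteria met; inactive = mean below 50 and not all replicates reaching 50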;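 also: 0% = plate neutral controls and 100% = maraviroc near 300 nM; one replicate is shown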
CSC inhib: cancer stem cell viability inhibitors, primary screen, luminescence; 300,000 compounds, 1.1% hits; inhibition, % at 7.5 µM; AID 2717, 2010; cancer stem cell-like cells viability;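 active = mean at 75% or more and at least half the replicates too; inconclusive = mean and replicates disagree; tested in HMLE shEcad cells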;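 also: 0% = median of negative and 100% = median of positive control wells; the first replicate is given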
Yeast UUG start: modulators of yeast start codon fidelity, primary screen, whole organism, S. cerevisiae, single point, plate reader; S. cerevisiae UUG-firefly luciferase reporter, luminescence/redox ratio; activity score, % at 18.7 µM; 350,000 compounds, 0.13% hits;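 active = replicate mean at a twofold rise or more, about +100% in these data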;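 also: firefly luciferase made from a UUG start codon reports start codon fidelity; reporter light over untreated wells divided by growth signal over untreated wells; some hits fall short of that in this replicate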
MT1-MMP act inh: blockers of MT1-MMP proenzyme processing, primary screen, HT1080 RFP-PRO-GFP cells, GFP/RFP fluorescence; Matrix metalloproteinase-14 (Homo sapiens), P50281; GFP/RFP ratio fluorescence, overnight; percent of plate control window, DMSO zero; AID 651647, 2012; GFP/RFP ratio change, % at 20 µM; 360,000 compounds, 0.061% hits;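 active = GFP/RFP ratio change of at least 30% with cell ATP level not reduced by more than half and red fluorescence within 50% of control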; also: strong numbers were not always called active
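Assay system: HT1080 RFP-PRO-GFP cells | Dosing: 20 µM single dose, 1% DMSO | Incubation: Cells overnight before dosing, compound overnight, 37 °C, 5% CO2 | Evaluation: GFP/RFP fluorescence ratio | Control set: DMSO-only wells and HT1080 RFP-L50D-GFP cell wells as references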
eIF4H FP inh: human eIF4H binding inhibitors, primary screen, translation initiation inhibitor project, biochemical, uHTS, fluorescence polarization; Eukaryotic translation initiation factor 4H (Homo sapiens), Q15056; eIF4H fluorescence polarization binding assay; inhibition, % at 35 µM; 290,000 compounds, 0.94% hits; AID 2012, 2009;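 active = 50% or more with normal probe brightness, or confirmed in later tests; inconclusive = above 50% with abnormal brightness, or retests that disagree; inactive = below 50% or failed in later tests; about a fifth of its hits are not listed in these tables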;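 also: calls also rest on retests at 20 µM and on dose response follow-up; 0% = protein and probe with vehicle and 100% = probe without protein; strong numbers were not always called active; many hits fall short of the cut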
PABP FP inh: PABP poly(A) RNA binding inhibitors, primary screen, biochemical, fluorescence polarization, uHTS; inhibition, % at 35 µM; 290,000 compounds, 1% hits;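 active = 50% or more with normal probe brightness, or confirmed in later tests; inconclusive = above 50% with abnormal brightness, or retests that disagree; inactive = below 50% or failed in later tests; about a fifth of its hits are not listed in these tables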;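 also: calls also rest on retests at 20 µM and on dose response follow-up; controls were probe without protein and protein plus probe with vehicle; some compounds called inactive have numbers as strong as hits; many hits fall short of the cut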
Target sequence (P11940 whole entry, looked up): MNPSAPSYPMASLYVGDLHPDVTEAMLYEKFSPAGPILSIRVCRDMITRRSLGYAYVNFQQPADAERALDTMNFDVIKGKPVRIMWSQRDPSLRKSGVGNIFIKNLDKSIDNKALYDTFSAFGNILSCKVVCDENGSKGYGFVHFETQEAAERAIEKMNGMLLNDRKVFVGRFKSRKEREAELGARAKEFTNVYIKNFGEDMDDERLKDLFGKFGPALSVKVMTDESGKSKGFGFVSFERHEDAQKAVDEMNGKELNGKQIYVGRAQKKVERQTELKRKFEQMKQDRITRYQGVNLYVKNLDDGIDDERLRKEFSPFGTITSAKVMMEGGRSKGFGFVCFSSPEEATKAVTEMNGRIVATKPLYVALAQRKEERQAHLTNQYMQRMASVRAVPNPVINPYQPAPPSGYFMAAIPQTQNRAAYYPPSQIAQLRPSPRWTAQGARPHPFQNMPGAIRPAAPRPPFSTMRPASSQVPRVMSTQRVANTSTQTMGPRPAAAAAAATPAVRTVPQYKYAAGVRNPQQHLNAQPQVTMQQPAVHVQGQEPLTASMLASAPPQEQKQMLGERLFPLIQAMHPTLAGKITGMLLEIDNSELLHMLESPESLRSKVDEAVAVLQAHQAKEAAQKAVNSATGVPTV
Rce1 inh: yeast Rce1p protease inhibitors, primary screen, biochemical, fluorescence, cell-free homogeneous. CAAX prenyl protease 2 (Saccharomyces cerevisiae (strain ATCC 204508 / S288c)), Q03530. yeast membranes, quenched prenylated peptide cleavage fluorescence. calls only. 290,000 compounds, 0.27% hits. AID 2563, 2010;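 active = fall in fluorescence gain of 50% or more versus controls, with final raw signal at or below 3038400; inconclusive = same 50% fall but final raw signal above 3038400; inactive = fall in fluorescence gain under 50%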;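 also: plate controls were neutral control wells for no effect and wells lacking membranes for full effect; tested at 10 µM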
eIF4H FP inh retest: also measured in eIF4H FP inh; calls as there; inhibition, %; compound at 20 µM; confirmation average;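 mean of two retest wells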
PABP FP inh retest: recorded beside PABP FP inh, whose call it bears; inhibition, %; compound at 20 µM; confirmation repeats;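 mean of two retest wells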
MT1-MMP act inh RFP: second read-out of MT1-MMP act inh, no call of its own (marks repeat the call); RFP signal change, %; measured here: RFP expression control read;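 0 = vehicle wells; hits needed this value within 50% of zero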
Starred values were filed as active, the others as inactive; i = inactive; ? = inconclusive; / = no result given. Random draw from the library; overall some 2.9% were active at least once.

The opening two records, ahead of the listing:
SMILES | HIV Env fusion | CSC inhib | Yeast UUG start | MT1-MMP act inh | MT1-MMP act inh RFP | eIF4H FP inh | PABP FP inh | Rce1 inh | others
O=C(N/N=C/c1ccoc1)c1cc(O)cc(O)c1 | 10 | -5 | -14 | 0 | 0 | 96* | 74* | i
CC(C)Oc1ccc2c3c(c(=O)oc2c1)CCC3 | -215 | -1 | -4 | 2 | -2 | 0 | 12 | i

This part in full (from the top)
SMILES | HIV Env fusion | CSC inhib | Yeast UUG start | MT1-MMP act inh | MT1-MMP act inh RFP | eIF4H FP inh | PABP FP inh | Rce1 inh | others
O=C(N/N=C/c1ccoc1)c1cc(O)cc(O)c1 | 10 | -5 | -14 | 0 | 0 | 96* | 74* | i
CC(C)Oc1ccc2c3c(c(=O)oc2c1)CCC3 | -215 | -1 | -4 | 2 | -2 | 0 | 12 | i
Cc1cc2nc(-c3ccc(Cl)cc3)c(CC(C)(C)C)n2c(C)c1Br | 9 | / | -5 | -5 | -8 | / | / | /
O=C(Nc1ccccc1)c1ccc(-n2cnnn2)cc1 | -38 | -3 | -18 | 7 | 6 | -8 | 10 | i
COc1ccc(OC)c(NC(=O)C2C3CCC(C3=C(C)C)C2C(=O)O)c1 (stereo unspecified) | -50 | -14 | -3 | 1 | 3 | -6 | -2 | i
Cc1cccc(NC(=O)CSc2nncn2-c2ccccn2)c1 | 5 | -6 | / | 0 | 1 | 1 | -13 | i
CC(=O)/C(=C\Nc1ccc(OCc2ccccc2)cc1)c1ccccc1 | / | 11 | / | -3 | -6 | -3 | -7 | i
CCc1nc2ccc(C(=O)NCCc3c[nH]c4ccccc34)cn2c1N(C)Cc1nccn1C | -6 | / | -12 | 0 | 2 | / | / | /
O=C(N/N=C/c1ccc(COc2ccc(Br)cc2)o1)c1ccc2c(c1)OCO2 | 0 | / | -19 | 4 | -11 | 6 | -1 | i
O=C1CCN(CCc2ccccc2)CCN1CCSc1ccccc1 | -30 | 14 | -1 | 1 | 3 | 9 | -10 | i
Cc1cc(/C=C(/C#N)c2nc3ccccc3[nH]2)c(C)n1-c1ccccc1C(=O)O | -1 | 1 | / | -19 | 4 | 45 | 0 | i
Cc1cc(=S)[nH]c(=S)[nH]1 | -2 | -9 | -9 | 4 | 1 | 2 | 1 | i
CC(C)(C)NC(=O)c1cccc2c1-c1ccccc1C2=O | 17 | -4 | -2 | 1 | 2 | 3 | -3 | i
COC(=O)COc1ccc2c(c1)O/C(=C\c1ccco1)C2=O | 1 | -10 | 5 | 9 | 0 | 21 | 16 | i
CC(C)C(=O)Nc1nnc(SCC(=O)N2C(C)CCCC2C)s1 (stereo unspecified) | 9 | 0 | -14 | 1 | 2 | 4 | 15 | /
CC(=O)c1c(C)[nH]c(-c2ccccc2)nc1=S | -16 | -1 | -17 | -1 | 6 | 6 | -8 | i
O=C1/C(=C/c2cccc(F)c2)CSc2sccc21 | / | 6 | -5 | -6 | -2 | 0 | -2 | i
Cc1cc(=O)oc2c3c(cc(OCC(=O)NCCCn4ccnc4)c12)OC(C)(C)CC3 | / | 69 | -12 | -1 | -1 | 0 | -3 | i
COC(=O)c1c(C)[nH]c(C(=O)/C=C/c2ccc(C)cc2)c1C | 8 | 34 | -37 | 2 | -2 | -5 | -2 | i
CN1N=C(C(=O)NC2CCCc3c2cnn3-c2ccc(F)cc2F)CCC1=O (stereo unspecified) | 25 | 1 | -16 | -6 | -21 | 18 | 12 | i
CC(C)n1c(N2CCN(CC(=O)Nc3ccc4c(c3)OCCO4)CC2)nc2ccccc21 | -31 | 1 | -12 | 3 | 2 | -4 | 2 | i
Cc1ccc(Nc2cc(C)nc3ccc(C)cc23)cc1 | 9 | -8 | 1 | 2 | -2 | 3 | 3 | i
O=CNc1cc(-c2ccc(C(=O)N3CCOCC3)cc2)cn2c(-c3ccc(F)cc3)cnc12 | 4 | / | -13 | -9 | -1 | / | / | /
CCCN(CC(=O)Nc1ccccc1C)C(=O)c1ccc(C)c(S(=O)(=O)N2CCCCC2)c1 | 15 | -12 | -5 | -1 | -8 | / | / | i
O=C(c1cccc(S(=O)(=O)Nc2cccc(C(F)(F)F)c2)c1)N1CCCCC1 | 5 | -3 | / | -1 | 0 | 5 | -17 | i
O=C(COC(=O)c1ccc(OC(F)F)cc1)NCC1CCCO1 (stereo unspecified) | 12 | / | -25 | -1 | 2 | / | / | /
CCc1noc(C)c1C(=O)N1CCN(S(=O)(=O)c2ccc(C(C)=O)cc2)CC1 | 4 | -3 | / | 1 | 2 | / | / | i
Cc1ccc(NC(=O)/C(=C\c2cccs2)NC(=O)c2ccccc2)cc1 | -3 | -12 | / | 1 | 2 | -12 | 3 | i
Clc1ccc2[nH]cc(-c3nnnn3-c3ccc4ccccc4c3)c2c1 | -27 | 15 | / | -8 | -14 | -12 | 10 | i
O=C(NCc1ccco1)c1cc2nc(-c3ccc4c(c3)OCO4)cc(C(F)(F)F)n2n1 | -5 | 5 | -11 | 1 | -6 | 0 | 18 | i
O=C(CCCN1C(=O)/C(=C/c2ccc(F)cc2)SC1=S)Nc1ccc(C(=O)O)cc1 | 13 | / | -14 | 1 | 1 | / | / | /
C=C(Br)Cn1c(CC)nc2ccccc21 | -68 | -17 | -13 | -2 | 2 | -3 | 0 | i
CCc1c(C)sc(NC(=S)Nc2nc(C)cc(C)n2)c1C(=O)OC | -8 | 26 | / | 3 | -3 | 1 | 1 | i
CSCC[C@H](NC(=O)C1CCN(S(=O)(=O)c2ccccc2)CC1)C(=O)NC1CC1 | -2 | -5 | -1 | -2 | 2 | / | / | i
O=C(CCC1CCCCC1)N1CCN(Cc2ccc3c(c2)OCO3)CC1 | 30 | 31 | -18 | 6 | -8 | -13 | 8 | i
CSc1cccc(NC(=O)c2ccco2)c1 | / | -9 | 2 | 7 | 8 | 2 | -4 | i
Cc1ccc(N2C(=O)c3ccc(C(=O)N4CCN(c5ccccc5F)CC4)cc3C2=O)cc1 | i | 8 | -8 | 3 | 3 | -19 | 6 | i
CC(CN1CCCCC1)OC(=O)c1ccc(Cl)cc1 (stereo unspecified) | / | 1 | -1 | -3 | -1 | 2 | 6 | i
COCCNC(=O)c1ccc(NS(C)(=O)=O)cc1 | / | 1 | 3 | -1 | 2 | 1 | 4 | i
CCc1nc(C)cn1S(=O)(=O)c1ccc([N+](=O)[O-])cc1 | -5 | 2 | -10 | -2 | -1 | 3 | 4 | i
CSc1nc(-c2ccc(Cl)cc2)nn1S(=O)(=O)c1ccccc1 | / | -6 | -19 | 4 | -1 | -9 | -1 | i
CCc1ccc(C2C3=C(CC(C)(C)CC3=O)OC3=C2C(=O)CC(C)(C)C3)cc1 | 16 | 3 | -18 | -16 | -15 | 2 | 4 | i
CCn1c(=S)[nH]c2ccccc21 | / | -3 | -23 | 3 | 11 | -9 | 1 | i
COc1cc(-c2cc(OC)c3c(C)oc(C)c3c(=O)c2)ccc1O | / | -2 | -7 | -77 | 5 | 16 | 30 | i
Cc1ccc(C)c(NC(=O)C(=O)NCCc2c[nH]c3ccccc23)c1 | 10 | 16 | -11 | 3 | 2 | -10 | 2 | i
Cc1c2cnn(CC(=O)NC3CCCC3)c(=O)c2c(C)n1Cc1ccccc1 | -5 | -3 | -11 | 3 | -4 | -8 | -6 | i
Cc1ccc[n+](/C(C(=S)NCc2ccco2)=C(/[O-])c2ccccc2Cl)c1 | -40 | 2 | -17 | 13 | 14 | 36 | 54 | i | eIF4H FP inh retest=-2;PABP FP inh retest=-5
CCOC(=O)N1CCN(S(=O)(=O)c2ccc(C(=O)N(CCN(C)C)c3nc4ccc(Cl)cc4s3)cc2)CC1 | -7 | 7 | -9 | -1 | -2 | 4 | 2 | i
COc1ccc(NCc2nnc(SCC(=O)Nc3cc(C)cc(C)c3)o2)cc1 | -11 | 15 | -15 | -11 | 1 | -4 | -7 | i
O=Cc1c(N2CCOCC2)nc2ccccn2c1=O | 0 | -13 | 3 | -2 | -5 | 7 | ? | i

Carrying on:
SMILES | HIV Env fusion | CSC inhib | Yeast UUG start | MT1-MMP act inh | MT1-MMP act inh RFP | eIF4H FP inh | PABP FP inh | Rce1 inh | others
O=C(Nc1ccc(S(=O)(=O)N2CCOCC2)cc1)c1ccc(Cl)c([N+](=O)[O-])c1 | -2 | / | -2 | -2 | 0 | / | / | /
CCc1ccc(NC(=O)NCCN2CCc3ccccc3C2)cc1 | / | -10 | -13 | -3 | 4 | 8 | 5 | /
CCCCCCN1C[C@@H](n2cc(C3CC3)nn2)[C@H](O)C[C@@H]1c1ccc(Cl)cc1 | 18 | / | -9 | 5 | 4 | / | / | /
CN(CC(=O)Nc1ccc(F)c(F)c1F)C(=O)CCN1C(=O)C2CC=CCC2C1=O (stereo unspecified) | -30 | / | -10 | 3 | 2 | / | / | /
CCc1cccc(NC(=S)N(CCOC)C(C)c2ccco2)c1 (stereo unspecified) | 9 | 12 | -13 | -1 | 1 | 33 | 40 | i
COc1ccc(C(=O)CN2C(=O)COc3ccccc32)cc1 | -15 | 11 | / | 2 | 2 | -2 | -2 | i
O=C(N/N=C/c1cccnc1)c1cccc(F)c1 | 8 | -2 | -11 | -3 | 2 | 96 | 4 | i | eIF4H FP inh retest=1;PABP FP inh retest=7
CCOC(=O)c1c(C)n(C)c2ccc(OC(=O)c3ccco3)cc12 | / | -2 | -13 | 7 | 0 | 1 | 6 | i
COc1cccc(/C=C/C(=O)Nc2cc(S(=O)(=O)N3CCOCC3)ccc2OC)c1 | 16 | / | -6 | 1 | -1 | / | / | /
CC1CN(S(=O)(=O)c2ccc(C(=O)Nc3nc(-c4cc5ccccc5o4)cs3)cc2)CC(C)O1 (stereo unspecified) | 38 | 29 | / | -12 | -25 | -11 | 4 | i
CCCn1c(N2CCN(C(=O)NCc3ccccc3)CC2)nc2ccccc21 | 14 | -9 | -13 | 2 | 0 | -12 | -1 | i
CC(=O)NC(CSC(CC(=O)c1ccco1)c1ccc(C)cc1)C(=O)O (stereo unspecified) | 8 | 11 | / | -4 | -1 | -4 | -10 | i
CC(C)(C)n1nnnc1C(c1cc2cc3c(cc2[nH]c1=O)OCO3)N1CCN(c2ccccc2)CC1 (stereo unspecified) | / | -7 | -3 | -48 | -24 | -1 | -3 | i
CCOc1ccccc1N1CCN(C(=O)NCc2ccc(F)cc2)CC1 | -3 | -2 | 5 | -1 | -4 | -6 | -5 | i
OCCC1CN(Cc2cccc(C(F)(F)F)c2)CCN1Cc1ccccc1 (stereo unspecified) | -20 | 18 | / | 1 | 0 | 6 | -6 | i
CC(C)N1CC(C(=O)Nc2ccc(F)c(Cl)c2)CC1=O (stereo unspecified) | -4 | -14 | -9 | -1 | -4 | 6 | -7 | i
C/C(=C\CNc1ncnc2nc[nH]c12)CO | / | 6 | -16 | -4 | -3 | / | / | i
Cc1ccc2c(c1)c1c(n2CC(O)CN2CCOCC2)CCCC1 (stereo unspecified) | / | -7 | / | / | / | -2 | 4 | i
O=C(CCCC(=O)N(CC(=O)NC1CCCC1)C1CCCC1)Nc1ccccn1 | / | 1 | 10 | 2 | 2 | -3 | -1 | i

Screens: PubChem, several laboratories
